# Beta cell apopt: beta cell apoptosis inhibition; INS-1E cytokine-induced death, ATP luminescence, 48 h; percent of positive-control rescue, neutral wells zero; protection from apoptosis, % (no concentration beside the values); 300,000 compounds, 0.8% hits; AID 435005;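 active = all replicates at 75% or more, or half of them and the mean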;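 also: 0% = cytokine-treated negative control wells and 100% = positive control rescue; higher means more ATP so stronger rescue from cytokine killing; wells of about 40 µL received 100 nL stock; the first replicate is given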
# AF4-AF9 inh: blocks AF4 peptide binding to human AF9; AlphaScreen, biotin-AF4 peptide binding to FLAG-AF9; inhibition, % at 10 µM; P42568; 350,000 compounds, 0.47% hits; AID 651704;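 active = every replicate reaching a set inhibition limit, whatever the replicate mean, cut at about 25% in these data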;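 also: 0% = plate neutral control median and 100% = total signal loss; the record names both 10 and 1 µM as test concentration; the first replicate is given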
# Target sequence (P42568 whole entry, looked up): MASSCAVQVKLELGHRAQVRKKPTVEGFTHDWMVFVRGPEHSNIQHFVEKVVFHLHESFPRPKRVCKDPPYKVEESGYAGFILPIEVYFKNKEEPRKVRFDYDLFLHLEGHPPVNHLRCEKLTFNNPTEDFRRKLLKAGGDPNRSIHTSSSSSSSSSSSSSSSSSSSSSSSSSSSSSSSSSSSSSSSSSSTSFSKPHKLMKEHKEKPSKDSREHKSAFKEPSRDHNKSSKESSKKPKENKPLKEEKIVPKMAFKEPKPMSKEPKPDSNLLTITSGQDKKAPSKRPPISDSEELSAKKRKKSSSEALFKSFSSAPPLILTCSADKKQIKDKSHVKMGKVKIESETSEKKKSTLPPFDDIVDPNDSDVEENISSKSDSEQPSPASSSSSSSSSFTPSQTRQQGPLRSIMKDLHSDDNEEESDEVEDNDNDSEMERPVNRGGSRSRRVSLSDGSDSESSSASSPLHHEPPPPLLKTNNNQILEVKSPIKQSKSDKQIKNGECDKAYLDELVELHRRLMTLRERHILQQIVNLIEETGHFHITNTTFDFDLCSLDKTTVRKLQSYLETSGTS
# rRNA inh HTS: inhibits bacterial ribosomal RNA function over humanized ribosomes; GFP signal change (wild-type ribosome), % (concentration not given with the values); AID 720706; 350,000 compounds, 1.6% hits; E. coli WT GFP vs humanized-ribosome RFP mutants, fluorescence, 24 h; stronger effect = lower value; DMSO median 0, no signal -100;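 active = significant combined selectivity score with lowered wild-type GFP, culture density cut under 30%, mutant RFP and density less affected; inactive = any of these conditions unmet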; also: one replicate is shown; some compounds called inactive have numbers as strong as hits
# E coli growth: inhibitors of Escherichia coli growth; OD600, 23 h; stronger effect = lower value; OD600 absorbance (concentration not given with the values); 330,000 compounds, 0.21% hits; AID 1053175;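 active = OD600 absorbance below the run mean of sample wells minus 3.6 SD, in any replicate, cut at about 0.56 in these data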;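 also: stock transfer was 300 nL into about 60 µL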
# UCH37 DUB inh: blocks the human deubiquitinase UCH37. inhibition, % (concentration not given with the values). 330,000 compounds, 0.33% hits. purified proteasome/UCH37, Ub-AMC cleavage fluorescence. AID 588478;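 active = mean of two replicates above 20%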;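 also: 0% = compound-free wells with enzyme and 100% = wells lacking proteasome; stock transfer was 100 nL into about 20 µL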
# Target sequence (Q9Y5K5 whole entry, looked up): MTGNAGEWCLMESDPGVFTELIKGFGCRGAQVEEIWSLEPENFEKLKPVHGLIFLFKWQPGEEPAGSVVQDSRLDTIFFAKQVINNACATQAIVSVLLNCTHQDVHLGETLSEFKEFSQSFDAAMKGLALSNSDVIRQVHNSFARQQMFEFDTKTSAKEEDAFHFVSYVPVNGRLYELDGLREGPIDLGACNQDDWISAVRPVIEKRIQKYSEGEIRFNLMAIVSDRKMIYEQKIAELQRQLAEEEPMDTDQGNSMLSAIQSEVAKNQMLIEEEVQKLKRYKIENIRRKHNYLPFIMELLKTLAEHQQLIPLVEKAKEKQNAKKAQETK
#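 Material: human UCH37 enzyme supplied as purified proteasome complex / Amount: 0.15 nM proteasome as dispensed / Buffer or medium: pH 7.4 Tris-HCl (50 mM) with ovalbumin, ATP-MgCl2, DTT / Times: preincubation 30 min, reaction 25 min, room temperature / Technique: AMC fluorescence from Ub-AMC cleavage, excitation 355 nm, emission 460 nm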
# FGF22 binding: FGF22 (human) thermal shift binding | recombinant FGF22 thermal shift, SYPRO orange fluorescence; percent of sucrose octasulfate shift, DMSO zero | calls only at 9.99 µM | 340,000 compounds, 1.5% hits;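 active = melting point raised past a set limit in the mean and every replicate; three in four hits are not shown here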
# Target sequence (Q9HCT0 whole entry, looked up): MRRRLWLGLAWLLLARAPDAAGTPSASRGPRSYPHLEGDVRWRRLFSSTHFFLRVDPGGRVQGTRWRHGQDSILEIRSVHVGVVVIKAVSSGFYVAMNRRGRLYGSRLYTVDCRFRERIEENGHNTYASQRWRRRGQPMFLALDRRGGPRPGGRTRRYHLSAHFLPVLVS
# T cruzi inh: T. cruzi replication inhibition; T. cruzi beta-gal in NIH3T3, luminescence, 90 h; inhibition, % (no concentration beside the values); 300,000 compounds, 1.4% hits;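 active = mean inhibition across valid replicates above about 55%, limit read from the data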;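 also: signal also drops with host cell toxicity which is not excluded here; 0% = plate median of DMSO wells and 100% = zero luminescence signal; higher percent means less beta-gal luminescence so fewer parasites; stock transfer was 50 nL into about 50 µL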
# A1 inh: inhibitors of the anti-apoptotic protein A1, read as caspase activation | MEF A1-2A-BIM cells, Caspase-Glo 3/7 luminescence, 3 h; percent of clofoctol response, vehicle zero | caspase activation, % (no concentration beside the values) | 330,000 compounds, 0.066% hits;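 active = over half of replicate activation scores above 10%, or exactly half above 10 with the replicate mean above 10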;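 also: wells of about 30 µL received 50 nL stock; many hits fall short of the cut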
# rRNA inh HTS OD600: recorded beside rRNA inh HTS, whose call it bears; OD600 change, %; measured here: OD600 growth;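 optical density of the mix in the first replicate; 0 = DMSO median and -100 = no signal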
# rRNA inh HTS RFP: further read-out of rRNA inh HTS, marked with its call; RFP signal change, %; measured here: RFP humanized mutant strains;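 first replicate; 0 = DMSO median and -100 = no signal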
# Numbers without * were called inactive; i = inactive; / = not tested or not shown; + = active, no number; & = joins results of further samples.
SMILES,Beta cell apopt,AF4-AF9 inh,rRNA inh HTS,rRNA inh HTS OD600,rRNA inh HTS RFP,E coli growth,UCH37 DUB inh,FGF22 binding,T cruzi inh,A1 inh
CC(C)c1ccc(S(=O)(=O)N2CCN(C(=O)CN3C(=O)NC4(CCCCC4)C3=O)CC2)cc1,2,-7.0,14,9,2.5,0.65,0.2,i,-17,0.6
CC1CCCN(C(=O)Cc2ccc(F)cc2)C1 (centres undefined),-1,/,/,/,/,0.69,-1.0,/,-11,0.3
Cc1ccc(C(=O)/C=C/Nc2ccc(S(=O)(=O)Nc3onc(C)c3C)cc2)cc1,-6,4.3,/,/,/,0.67,15,i,-10,-0.2
O=C(N1CCOCC1)N1CCN(c2ccccc2F)CC1,-4,-6.7,3,0,0.1,0.76,2.7,i,-2,-0.2
Cc1cc(NC(=O)CCC(=O)N(CC(=O)NC2CCCC2)c2ccc(Cl)cc2)no1,0,-0.9,0,0,1.1,0.66,2.5,i,-5,0.6
Cc1cc(C)c2c(Cn3ccnc3)cc(=O)oc2c1,7,0.0,5,12,0.5,0.63,5.1,i,-12,-0.7
COc1ccc(NC(=O)N(C)C[C@H]2Oc3c(NC(=O)C4CCCCC4)cccc3C(=O)N([C@H](C)CO)C[C@@H]2C)cc1,1,-2.6&0.7,-2&3,2&13,-1.5&-1.4,0.69,1.2,i,/,1.2
NS(=O)(=O)c1cccc(NC(=O)c2ccc(NS(=O)(=O)c3cccc([N+](=O)[O-])c3)cc2)c1,-5,3.2,-13,3,-2.9,0.66,4.2,+,/,0.8
CCC1(C)Cc2ccccc2C(Nc2c(C)n(C)n(-c3ccccc3)c2=O)=N1 (centres undefined),1,/,/,/,/,0.66,-0.4,/,-15,-0.5
O=C1OC(c2cccs2)=N/C1=C/c1ccc(-c2cccc(C(=O)O)c2)o1,/,-5.3,27,22,4.2,0.66,-6.0,+,/,/
O=C(NCCCN1CCCC1)c1ccc(CS(=O)(=O)c2ccc(Br)cc2)o1,-2,-1.9,7,11,7.2,0.73,2.8,i,-19,-1.1
Cc1c(NC(=O)C(C)c2ccc(CC(C)C)cc2)c(=O)n(-c2ccccc2)n1C (centres undefined),2,/,/,/,/,0.68,1.8,/,9,1.7
COc1nnc(-c2ccc(C)c(S(=O)(=O)N(C)C)c2)c2ccccc12,4,-1.5,-6,-4,-0.3,0.7,3.2,i,7,-0.5
CCCCC1=CC2=CC(=O)C(C)(OC(=O)CC)C(=O)C2=CN1C1CCCCC1 (centres undefined),-4,2.4,4,-1,3.8,/,-0.4,i,21,0.5
O=C(Nc1ccc(S(=O)(=O)N2CCN(Cc3ccccc3)CC2)cc1)c1cnccn1,44,/,/,/,/,0.68,-0.2,/,-7,-0.4
COCCCN(C(=O)c1cc2c(s1)CCC2)c1c(N)n(Cc2ccccc2)c(=O)[nH]c1=O,-3,/,/,/,/,0.71,1.8,/,-6,1.2
O=C(Nc1cccc(-n2cnnn2)c1)C1CCCN(Cc2cccc(C(F)(F)F)c2)C1 (centres undefined),2,3.2,-10,-58,-6.7,0.68,2.9,i,40,0.8
O=c1c2cc([N+](=O)[O-])ccc2nc2n1CCCC2,-1,-0.9,-19,-15,-1.4,0.64,5.0,i,2,2.3
Cc1ccc(S(=O)(=O)NNC(=O)NC23CC4CC(CC(C4)C2)C3)cc1,1,-0.4,-24,-33,-21,0.69,2.2,i,-1,0.7
Cc1ccc(NC(=S)N(CCN(C)C)C(C)c2ccco2)c(C)c1 (centres undefined),-6,3.8,5,4,-4.5,0.67,0.8,i,-7,0.0
CCN(CC)C(=O)CSc1nc(C)cc(C)c1C#N,-2,-1.2,6,3,0.9,0.69,3.1,i,-2,-0.5
C#CCOCCOCCOCCNc1nc(N2CCN(C(=O)[C@H](CCCN=C(N)N)n3cc(C(N)[C@@H](C)CC)nn3)CC2)nc(N2CCN(C(=O)[C@H](CCC(=O)O)n3cc([C@@H](N)[C@H](C)CC)nn3)CC2)n1 (some centres undefined),-14,16,16,12,4.0,0.69,0.0,i,/,1.6
O=C(Nc1ccc2ccccc2c1)c1cccc2ccccc12,/,-0.9,10,19,6.8,0.72,-2.3,i,/,/
C=CCOc1cccc(CNc2ccc3[nH]c(=O)[nH]c3c2)c1,5,12,0,3,0.3,/,/,i,-15,-1.1
CCN(CC)S(=O)(=O)c1ccc2[nH]c(=O)cc(C(=O)N(C)C3CCS(=O)(=O)C3)c2c1 (centres undefined),2,-5.5,11,12,0.0,0.7,0.6,i,/,0.9
CS(=O)(=O)c1ccc(Cl)c(S(=O)(=O)NCc2ccccc2)c1,6,/,/,/,/,0.68,2.8,/,0,0.2
CN(CC(=O)Nc1ccccc1Cl)C(=O)COC(=O)Cc1c(F)cccc1Cl,-1,-0.3,2,-1,0.0,0.69,2.8,i,-6,0.2
CS(=O)(=O)N(CC(=O)N1CCCC1)Cc1ccc(Cl)cc1,-1,/,/,/,/,0.71,6.4,/,-1,0.7
CCC(=O)N1CCc2cc(S(=O)(=O)CCC(=O)Nc3nc(C)cs3)ccc21,/,/,/,/,/,0.7,-0.1,/,-17,0.6
CCOC(=O)c1cc(-c2ccccc2)sc1NC(=O)C(C)OC(=O)c1cccc(S(=O)(=O)N(C)C)c1 (centres undefined),-6,/,/,/,/,0.72,1.5,/,31,0.9

# Some of these compounds in order of the E coli growth value, high to low:
compound | AF4-AF9 inh | rRNA inh HTS | rRNA inh HTS OD600 | rRNA inh HTS RFP | E coli growth | UCH37 DUB inh | FGF22 binding
CS(=O)(=O)N(CC(=O)N1CCCC1)Cc1ccc(Cl)cc1 | / | / | / | / | 0.71 | 6.4 | /
COc1ccc(NC(=O)N(C)C[C@H]2Oc3c(NC(=O)C4CCCCC4)cccc3C(=O)N([C@H](C)CO)C[C@@H]2C)cc1 | -2.6&0.7 | -2&3 | 2&13 | -1.5&-1.4 | 0.69 | 1.2 | i
Cc1c(NC(=O)C(C)c2ccc(CC(C)C)cc2)c(=O)n(-c2ccccc2)n1C (centres undefined) | / | / | / | / | 0.68 | 1.8 | /

# Further compounds
SMILES,Beta cell apopt,AF4-AF9 inh,rRNA inh HTS,rRNA inh HTS OD600,rRNA inh HTS RFP,E coli growth,UCH37 DUB inh,FGF22 binding,T cruzi inh,A1 inh
CC(=O)c1ccc(OC(C)C(=O)OCC(=O)NCCc2ccccc2)cc1 (centres undefined),5,-2.3,/,/,/,0.67,1.2,i,/,-0.8
CC1CC(C)C(=O)C(C(CC2CC(=O)NC(=O)C2)OC(=O)CC(=O)c2ccccc2)C1 (centres undefined),/,-50,5,15,-3.4,0.68,5.0,i,/,/
CCn1nc(NC(=O)c2ccco2)c2cc3ccccc3nc21,-2,/,/,/,/,0.62,-38,/,4,-0.8
O=C(O)c1cccnc1C(=O)c1ccccc1,-8,0.2,5,4,-2.3,0.7,1.3,i,-28,-0.7
O=C(O)CCN1CCOCC1,-4,/,/,/,/,0.69,-2.2,/,5,0.4
COc1ccc(/C=C/C(=O)OCC(=O)N(C)c2c(N)n(Cc3ccccc3)c(=O)[nH]c2=O)cc1OC,/,-0.1,-1,1,-1.1,0.65,-34,/,/,/
Cc1cc(C(=O)Nc2c[nH]c(=O)[nH]c2=O)ccc1[N+](=O)[O-],0,-1.1,14,13,1.5,0.71,5.6,i,-10,-0.8
Oc1ccc(/C=N/Nc2nc(N3CCCC3)nc(N3CCCC3)n2)cc1O,21,5.2,-5,-14,-2.5,/,/,/,4,1.2
CCCCC(=O)Nc1ccc2c(c1)nc(CCNC(=O)c1ccco1)n2C,-6,0.8,0,1,0.7,0.59,0.0,i,-16,-0.3
COc1ccc(Cl)cc1-c1nc(SCC(=O)N(C)C2CCS(=O)(=O)C2)n[nH]1 (centres undefined),-2,-3.5,2,2,3.4,0.69,2.0,i,/,0.5
COc1ccc2c3c([nH]c2c1)C(C)N(C(C)=O)CC3 (centres undefined),-5,3.9,0,-1,-0.1,0.65,2.4,i,1,1.5
O=C(NC1=NCCS1)c1cccc(OC(F)F)c1,0,-1.2,0,7,-0.4,0.66,2.0,/,7,-0.2
Cc1ccnc2nc(C(=O)OCC(=O)NC(=O)NCc3ccco3)nn12,0,-1.9,12,10,0.5,0.65,0.1,i,-12,0.0
COc1cc2c(cc1NC(=O)C(C)N1CCN(S(=O)(=O)c3ccc(C)c(C)c3)CC1)oc1ccccc12 (centres undefined),2,/,/,/,/,0.74,-36,/,15,0.9
CC(C)N(Cc1ccccc1)C(=O)CSc1nccn1C,1,-2.2,11,13,-1.3,0.67,-1.6,i,-5,-0.3
CC1CC(OC(=O)c2ccccc2C(=O)c2ccc(Cl)cc2)C(=O)O1 (centres undefined),0,0.4,15,11,4.7,0.68,2.1,i,/,-0.2
CC(C)(C)NC(=O)CCn1nc(-c2ccc(Cl)cc2)c2ccccc2c1=O,2,/,/,/,/,0.64,1.5,/,-2,0.0
O=C(Nc1ccccc1N1CCN(C(=O)c2ccc(Cl)cc2)CC1)c1ccc(Br)cc1,/,/,/,/,/,0.76,-3.3,/,64*,0.3
COc1ccccc1C(=O)Nc1ccc(CN2CCCCC2)cc1,/,/,/,/,/,0.71,-4.3,/,2,-0.5
COc1cc(NCc2ccccc2)c2ncn(C(C)C)c2c1,-4,-5.8,-23,-44,20,0.65,2.2,i,/,1.9
C=CCN=c1scc(-c2ccccc2)n1/N=C/c1ccccn1,24,28*,-47&-54,-78&-76,-17&-13,0.68,3.5,i,-26,-0.7
CC(=O)c1cccc(Nc2nc(=O)c3cccnc3s2)c1,10,/,/,/,/,0.71,3.0,/,-11,0.8
Cc1cccc(NC(=O)c2oc(=O)c3ccccc3c2-c2ccccc2)c1C,9,/,/,/,/,0.68,0.2,/,-2,-1.5
CCCCC(c1nnnn1C(C)C)N1CCN(C(=O)c2ccco2)CC1 (centres undefined),7,4.7,0,9,-1.2,0.64,2.0,i,2,0.1
COc1ccccc1N1CCN(Cc2cc(=O)c(OCC(=O)NC(C)C)co2)CC1,/,0.7,5,10,-1.1,0.7,-3.5,i,-13,0.1
Nc1nonc1-n1nnc(C(=O)N/N=C/c2cccs2)c1CSc1ccccc1,1,-2.4,0,11,2.8,/,/,i,-5,-2.5
CCCSc1nsc(NC(=O)Nc2ccc(F)cc2F)n1,106*,1.7,-57,-80,-16,0.59,4.4,i,13,-0.5
C/C(=C\C(=O)OCCCCCCCCC(=O)O)C[C@@H]1OC[C@H](C[C@@H]2O[C@H]2[C@@H](C)[C@H](C)O)[C@@H](O)[C@H]1O,10,-1.6,/,/,/,/,0.2,i,-3,-0.6
N#Cc1c(-c2ccc3c(c2)OCO3)cc[nH]c1=O,-7,/,/,/,/,0.67,0.6,/,-11,0.2
COC(=O)C1=C(O)C(C(=O)OC)C(c2ccc(C)cc2)C(C#N)(C#N)C1c1ccc(C)cc1 (centres undefined),25,/,/,/,/,0.69,2.0,/,-17,-0.5
COc1cc2[nH]cc(C(=O)NCc3cccs3)c(=O)c2cc1OC,-7,/,/,/,/,0.72,-3.0,/,0,-0.1
O=C(c1nc2nc(-c3ccccc3)cc(C(F)(F)F)n2n1)N1CCOCC1,3,/,/,/,/,0.68,-29,/,-8,-0.1
COc1cccc(NC(=O)Nc2nnc(-c3ccccc3SCc3ccccc3)s2)c1,34,/,/,/,/,0.82,1.9,/,/,0.7

# Screening data deposited in PubChem by several laboratories.

# Some of the compounds tested (hit frequency here may not be typical).
